Bioassay records from PubChem BioAssay.
Vaccinia mCherry: inhibitors of vaccinia virus infection (mCherry reporter signal); hit rate 0.63% among 310,000; Vaccinia virus mCherry reporter infection, fluorescence; about a quarter of the inactives have no number; AID 720579; Potency, µM (titrated, usually from 36.5 µM), for the others: top-dose activity change, negative = inhibition, usual class: inhibitors; active = well fitted inhibition curve with a large enough effect; inconclusive = small, poorly fitted or top-dose-only effect; inactive = no such curve, though single readings can be large or run the other way; tested in A549 cells; note: nearly all actives have a fitted effect of over 35% in size; inactives centre near -10
VACV Venus inh: inhibitors of vaccinia virus (Venus reporter); Vaccinia virus Venus reporter expression, fluorescence; Potency, µM (top dose mostly 36.5 µM), for the others: at the highest dose activity change, negative = inhibition, actives largely listed as inhibitors; hit rate 0.46% among 330,000; AID 720580; active means well fitted inhibition curve with a large enough effect; inconclusive means small, poorly fitted or top-dose-only effect; inactive means no such curve, though single readings can be large or run the other way; tested in A549 cells; note: nearly all actives have a fitted effect of over 30% in size; inactives centre near -10
Numbers without * were called inactive; i = inactive; ? = inconclusive; nt = no result given; & = joins results of further samples; [ ] = another dose, or the depositor's remark. % is set by controls: 0 for no effect and ±100 for the full control effect; potency is the fitted concentration of half-maximal effect.

SMILES | Vaccinia mCherry | VACV Venus inh
CC(C)C(OC(=O)Cn1nnc2ccccc21)C(=O)NC1CCCC1 (stereo not drawn) | -12% | 20%
O=c1[nH]c(SCc2nc3ccccc3c(=O)n2-c2ccccc2)nc2ccccc12 | -16% | -14%
Cc1cccc(NC(=S)N(Cc2cccs2)Cc2cc3cc(C)ccc3[nH]c2=O)c1 | i | -12%
O=C(c1ccccc1)c1ccc(OCCCN2CCCCC2)cc1 | i | -9%
COCCNC(=O)C(c1ccc(C)o1)N(C(=O)c1snc(C(N)=O)c1N)c1ccc(C)c(C)c1 (stereo not drawn) | i | -5%
O=C(NCC1CCCO1)C(c1cccs1)N(C(=O)c1ccc(CN2CCOCC2)o1)c1ccc(Cl)cc1 (stereo not drawn) | -10% | -12%
COc1ccc(NC(=O)c2cccc(Oc3ccccc3)c2)cn1 | -7% | -21%
CCCN(CC(=O)Nc1cc(Cl)ccc1Cl)C(=O)CN1C(=O)C2CCCCC2C1=O (stereo not drawn) | i | -17%
Cc1ccc(N=Nc2ccc(O)c3ncccc23)cc1 | 13µM* | ?
CCC(c1nc2ccccc2[nH]1)N(C(=O)Cc1cc(OC)cc(OC)c1)c1ccc(N2CCOCC2)cc1 (stereo not drawn) | 31%[activator] | 5%
O=C(CC1(O)C(=O)N(Cc2ccccc2)c2ccc(Br)cc21)c1ccccc1 (stereo not drawn) | -1% | -12%
CSCCC(c1nnnn1-c1ccc2c(c1)OCCO2)N1CCC2(CC1)C(=O)NCN2c1ccccc1 (stereo not drawn) | 27% | -1%
COc1ccc(-c2nc3c(c(=O)[nH]c(=O)n3Cc3ccccc3)n2C)cc1 | nt | -6%
CCCCCn1c(N)c(-c2nc3ccccc3o2)c2c([N+](=O)[O-])nn(C)c(=O)c21 | i | -3%
CC1C/C(=N\NC(=S)NC(C)C)CC(C)(C)C1 (stereo not drawn) | -19% | -8%
FC(F)(F)c1ccccc1-n1ccnc1 | ? | ?
NC(=O)c1oc2ccc(Cl)cc2c1NC(=O)CN1CCOCC1 | nt | -11%
O=C(Nc1ccc(-c2csc(Nc3ccc(Cl)cc3)n2)cc1)c1cccc(C(F)(F)F)c1 | ? | ?
COc1ccc(S(=O)(=O)N(C)CC(=O)NC2CC2)cc1 | i | -5%
COc1ccc2c(c1)c(=O)c(S(=O)(=O)c1ccc(Cl)cc1)cn2C | -13% | -4%
O=C(NNC(=O)C1COc2ccccc2O1)c1cccc([N+](=O)[O-])c1 (stereo not drawn) | i | -1%
CCCN1C(=O)/C(=C/c2ccco2)SC1=Nc1ccc(OC)cc1 | -13%[1.46 µM] | -11%
O=C(N/N=C/c1ccncc1)c1cccc(S(=O)(=O)Nc2ccc(Cl)cc2)c1 | -17% | 1%
COc1cc(NC(=O)c2cccnc2)c(Cl)cc1NC(=O)c1ccccc1 | -16% | -5%
CCC(C(=O)Nc1cnccn1)c1ccccc1 (stereo not drawn) | -5% | -14%
O=C(NCc1cccnc1)/C(=C/c1ccc(Cl)cc1)NC(=O)c1ccccc1 | -13% | 0%
O=C(CCCCn1c(=O)c2ccccc2n(Cc2ccc(F)cc2Cl)c1=O)NCc1ccco1 | nt | ?
O=C1CC(c2ccc(F)cc2)Cc2nc(N3CCN(c4ccccc4)CC3)ncc21 (stereo not drawn) | nt | -15%
Cc1nc(C)n(C)c(=O)c1-c1ccccc1 | -9% | -6%
CCOc1ccc(NC(=O)c2ccc(NC(=O)COC(=O)Cc3ccc(OC)cc3)cc2)cc1 | i | -16%
COCC(C)NC(=O)c1cc(-c2ccc(O)cc2)on1 (stereo not drawn) | i | -16%
Cc1ccc(CN(Cc2ccco2)c2cnc(S(C)(=O)=O)nc2C(=O)Nc2ccc(Br)cc2)o1 | -19% | -10%
COC(=O)N/N=C\c1c(C)nn(-c2ccccc2)c1Cl | i | -15%
O=C(C1CCN(S(=O)(=O)c2cccc([N+](=O)[O-])c2)CC1)N1CCOCC1 | -2% | 0%
CCOC(=O)c1ccc(NS(=O)(=O)c2c(N)n(C)c(=O)n(C)c2=O)cc1 | -8% | ?
O=C(NCC(c1cccs1)N1CCc2ccccc21)c1ccccc1 (stereo not drawn) | -27% | -16%
CCn1c(C)c(C)c2cc(C(=O)N3CCN(c4ccccc4)CC3)ccc21 | ? | -10%&-4%
C1CCCCCC(=NNc2nn[nH]n2)CCCCC1 | -4%[7.34 µM] | -4%[7.34 µM]
COC(=O)C(O)(c1ccc(N=Cc2ccccc2O)c(C)c1)C(F)(F)F (stereo not drawn) | -8% | 0%
Cc1ccsc1/C=N/n1c(=S)[nH]nc(C)c1=O | -15% | -7%

3 entries from above, with tabs.
smiles	Vaccinia mCherry	VACV Venus inh
Cc1nc(C)n(C)c(=O)c1-c1ccccc1	-9%	-6%
CCOc1ccc(NC(=O)c2ccc(NC(=O)COC(=O)Cc3ccc(OC)cc3)cc2)cc1	i	-16%
COCC(C)NC(=O)c1cc(-c2ccc(O)cc2)on1 (stereo not drawn)	i	-16%

The list continues.
SMILES | Vaccinia mCherry | VACV Venus inh
CC(C)Nc1nc(SCC(=O)Nc2ccccc2)nc(N2CCOCC2)n1 | nt | -22%
CCN1CCc2c(sc(NC(=O)c3ccc(S(=O)(=O)N(CCOC)CCOC)cc3)c2C(N)=O)C1 | -5% | 3%
Cc1nc2c(c(C)nn2-c2ccccc2)c(C)c1CCC(=O)Nc1ccc(CN2CCCC2)cc1 | -3% | -14%
CCn1c2ccccc2n2c(=O)c(=O)n(CC(=O)Nc3ccc(C(C)C)cc3)nc12 | i | -14%
COc1nnc(-c2ccc(N3CCCCC3)c(NC(=O)c3ccc(C)cc3)c2)c2ccccc12 | -10% | -4%
CC(C)c1cc(Cn2c3ccccc3c(=O)n2C(C)C)on1 | 2% | -7%
Cc1ccc(C)c(N2N=C(C(=O)OCC(=O)N(C)c3ccccc3)CCC2=O)c1 | i | -6%
CCn1c(COc2ccccc2)nnc1SCc1ccc(C#N)cc1 | nt | ?
COc1ccc(NC(=O)c2cc(-c3cc(Cl)ccc3C)n[nH]2)c(OC)c1 | i | -19%
CC(=O)Nc1cc2c(cc1C(=O)C(C)C)OCCO2 | nt | 4%
Cn1cc(S(=O)(=O)c2ccc(Cl)cc2)c(=O)c2cc(F)c(N3CCCC3)cc21 | -19% | -30%
CC1(C(=O)NCc2cccs2)Cc2c(-c3ccc(C(N)=O)cc3)ccnc2O1 (stereo not drawn) | -10% | -18%
COc1ccc(N(CC(=O)N2CCN(c3ccccc3F)CC2)S(=O)(=O)c2c(C)n[nH]c2C)cc1 | -9% | -15%&-9%
CCC(C)[C@H](NC(=O)c1cc2cc(Cl)ccc2n1C)C(=O)N1CCC[C@H]1C(=O)O (stereo partly drawn) | ? | ?
COc1ccc(OCc2cnc(Cl)s2)cc1 | 13% | 9%
Cc1ccc(S(=O)(=O)NCCCn2ccnc2)cc1 | -10% | 3%
O=C(Nc1nc(-c2cccs2)cs1)c1ccc(Cl)cc1 | -11% | -18%
O=C(/C=C\Nc1ccccc1Br)c1ccc2c(c1)OCO2 | -22% | -12%
O=C(NCc1ccc2c(c1)OCO2)c1ccc(-c2ccc(Cl)cc2)o1 | -15% | -4%
O=C(Nc1ccccc1O)c1csc2c1CCCC2 | -7% | -18%
OCC1OC(n2ccc3c(NO)ncnc32)C(O)C1O (stereo not drawn) | ? | 1.1µM*
O=C(O)c1ccncc1 | -12% | -11%
CC(C(=O)N1CCN(Cc2ccccc2)CC1)n1ncn2cccc2c1=O (stereo not drawn) | i | -8%
CCOc1ccc(NC(=O)NC2(C(=O)NCc3ccco3)CCCCC2)cc1 | 12% | 0%
Brc1ccc(CSc2nnc(-c3cccnc3)o2)cc1 | -7% | -13%
Cn1c(O)c(C=NCCOc2ccc(Cl)cc2)c(=O)n(C)c1=O | -29% | -24%
CCc1noc(C)c1C(=O)N1CCCC(C(=O)c2cc(F)ccc2F)C1 (stereo not drawn) | i | -6%
Fc1ccc(C(c2nnnn2Cc2ccccc2)N2CCSCC2)cc1 (stereo not drawn) | -16% | -14%
CC1=C(C(=O)OC2CCCCC2)C(c2ccc(F)cc2)NC(=O)N1 (stereo not drawn) | -2% | -17%
O=C(CSc1ccc2nnc(-c3cccnc3)n2n1)NCc1ccco1 | -15% | 3%
CC(=O)N1N=C(c2ccc(C(C)(C)C)cc2)OC1(C)C | i | -9%
COc1cccc(CNC(=O)c2nnn(CC(=O)Nc3cc(C)ccc3C)c2N)c1 | i | -11%
COCCNC(=O)c1cccc(C)c1[N+](=O)[O-] | i | -11%
COc1ccc(C(=O)N/N=C(\CCC(=O)O)c2ccc(C(C)(C)C)cc2)cc1OC | -10% | -11%
O=C(NCCn1cccn1)C1CCC(=O)N(CCc2cccc(F)c2)C1 (stereo not drawn) | i | -2%
CC(C)(C)NC(=O)CSc1nc2[nH]ncc2c(=O)[nH]1 | i | 4%
COc1cccc(-c2cc(C(=O)Nc3nc4ccccc4s3)c3ccccc3n2)c1 | -1% | -11%
Cc1cccc(OCC(=O)NCC(=O)N/N=C/c2cc(Br)cc(Br)c2O)c1 | ? | ?
CCCCCCN1CCN(c2ccccc2Cl)CC1 | -13% | -25%
CCOC(=O)[C@@H]1[C@H]2COc3cc(OC)ccc3[C@@H]2N2C(=O)N(c3cccc(C)c3)C(=O)[C@@]12C | -18% | 3%

Among those listed so far, three contain a tert-butyl group.
SMILES | Vaccinia mCherry | VACV Venus inh
CC(=O)N1N=C(c2ccc(C(C)(C)C)cc2)OC1(C)C | i | -9%
COc1ccc(C(=O)N/N=C(\CCC(=O)O)c2ccc(C(C)(C)C)cc2)cc1OC | -10% | -11%
CC(C)(C)NC(=O)CSc1nc2[nH]ncc2c(=O)[nH]1 | i | 4%

Single records, as listed above:
COc1cccc(CNC(=O)c2nnn(CC(=O)Nc3cc(C)ccc3C)c2N)c1 reads Vaccinia mCherry = i; VACV Venus inh = -11%
COc1ccc(C(=O)N/N=C(\CCC(=O)O)c2ccc(C(C)(C)C)cc2)cc1OC reads Vaccinia mCherry = -10%; VACV Venus inh = -11%
Cn1c(O)c(C=NCCOc2ccc(Cl)cc2)c(=O)n(C)c1=O reads Vaccinia mCherry = -29%; VACV Venus inh = -24%

New compounds follow.
SMILES | Vaccinia mCherry | VACV Venus inh
COc1cc(OC)cc(-c2c(C#Cc3ccsc3)c3cc(-c4cnc(OC)nc4)ccc3n2C)c1 | i | -8%
CC1=C(C(=O)Nc2ccccc2)C(c2ccccn2)n2nc(SCc3ccccc3Cl)nc2N1 (stereo not drawn) | -10% | -7%
COC(=O)c1cccc(N(CC(=O)NC2CCCC2)C(=O)CNC(=O)c2cccs2)c1 | i | -9%
CCCOC(=O)c1ccc(Nc2c(C(=O)OCC)cnc3c(C)cc(Cl)cc23)cc1 | -10% | -1%
Cc1ccc(-c2nn3c(C)nnc3c3ccccc23)cc1S(=O)(=O)NCC(C)O (stereo not drawn) | -11% | -9%
Cc1csc(NC(=O)Cc2ccc(F)cc2)n1 | -13% | -7%
COCCNC(=S)N/N=C/c1ccc(OCc2ccc(C(=O)OC)cc2)c(OC)c1 | -4% | -11%
CN(Cc1ccccc1)C(=S)NC(=O)C1CCCCC1 | i | -12%
CC(C)Oc1ccc(CNC(=O)C2CCCN(S(=O)(=O)N3CCOCC3)C2)cc1 (stereo not drawn) | -18% | -17%
CCN(CC(=O)NC1CCS(=O)(=O)C1)S(=O)(=O)c1ccc2ccccc2c1 (stereo not drawn) | i | -17%
CCN(CC)S(=O)(=O)c1ccc(OC)c(NC(=O)c2cc(C)on2)c1 | -10% | -4%
CCc1cccc(CC)c1NC(=S)N(CCN(C)C)C(C)c1cccnc1 (stereo not drawn) | -10% | -8%
O=C(COc1ccccc1)Nc1ccc(S(=O)(=O)N(Cc2ccccc2)c2ccccc2)cc1 | -22% | -7%
CC(=O)c1ccc(Nc2cc(C)nc3nc(C)nn23)cc1 | -6% | -4%
COc1ccc(NC(=O)C2CCN(S(=O)(=O)c3ccc4[nH]c5c(c4c3)CCCCC5)CC2)cc1 | i | -18%
CC1CCCCC12NC(=O)N(CC(=O)Nc1ccc3c(c1)OCO3)C2=O (stereo not drawn) | i | -10%
CC1(C)C(=O)Nc2ccccc2N1C(=O)COC(=O)C1CCCCC1 | 7% | 11%
COc1ccc(-c2ccnc(SCC(=O)Nc3ccccn3)n2)cc1 | nt | -11%
COC(=O)N/N=C/c1cc(N=Nc2ccccc2)ccc1O | ? | -5%
Cc1ccc2nc(NNC(=O)c3ccc4c(c3)OCCO4)sc2c1 | ? | -20%
CC(C)=CCc1cc(-c2oc3cc(O)cc(O)c3c(=O)c2O)ccc1O | -21% | -10%
Fc1ccc(C2=NOC(c3nnc(-c4ccccc4)o3)C2)cc1 (stereo not drawn) | -2% | -9%
CC(=O)N1CCN(C(=O)c2cc3c(s2)CCC(C)C3)CC1 (stereo not drawn) | -1% | -18%
COc1ccc(CNC(=O)Cn2c(SCC(=O)Nc3ccc(OC)cc3)nc3ccccc32)cc1 | i | -7%
COc1ccccc1C1CCCN1Cc1nc(-c2cc3c(cc2Cl)OCO3)oc1C (stereo not drawn) | ? | -1%
CCOC(=O)c1ccc(N2C(=O)C3CC=C(C)CC3C2=O)cc1 (stereo not drawn) | nt | 0%
